Source: PubChem (ICCB-Longwood Screening Facility, Harvard Medical School)
KSHV LANA nucl: inhibitors of KSHV LANA binding to nucleosomes; FITC-LANA1-23 / chicken nucleosome fluorescence polarization; stronger effect = lower value; z-score (no concentration beside the values); hit rate 0.3% among 51,000; AID 720717;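 active = both repeat wells score below -2 in polarization z-score versus plate sample wells, excluding overly bright wells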;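 note: 100 nL library stock added to about 30 µL; numbers are from one replicate; some results filed as inactive read as strong as hits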
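Test system: purified chicken nucleosomes with FITC-labelled LANA N-terminal peptide (1-23); Input: 240 nM purified chicken nucleosomes (480 nM peptide binding sites), final; Medium: TEN-BT buffer, pH 7.5; Timing: 10–45 min, room temperature; Technique: fluorescence polarization, 480 nm excitation, 535 nm parallel and perpendicular emission; Replication: duplicates.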
BasE inh: blocks the Acinetobacter baumannii siderophore enzyme BasE | AID 485350 | inhibition, % (concentration not given with the values) | purified BasE, fluorescence polarization binding displacement | hit rate 0.1% among 84,000;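 active = both replicates above 25% with normal brightness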;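 note: 0% = negative plate control signal and 100% = positive plate control signal; stock transfer was 100 nL into about 30 µL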
Numbers without * were called inactive; x = no result given; & = joins results of further samples.

Values run as follows: BasE inh | KSHV LANA nucl
Cc1ccccc1NC(=O)CSC1CCCCC1
 : -0.2 | -0.11
COc1ccc(Nc2nc(N3CCN(S(C)(=O)=O)CC3)nc3ccccc23)cc1
 : -1.3 | x
COc1ccc(C2=NC3(CCN(Cc4cccc(OC)c4)CC3)NC2=O)cc1
 : 0.1 | 0.071
CCCOc1ccc(C=Nc2ccc(N3CCN(C)CC3)cc2C)c(O)c1
 : 2.3 | x
Nc1nnc(CCS(=O)(=O)c2cc(Cl)ccc2Cl)s1
 : -4.1 | 1.6
N#Cc1c(-c2cccs2)nc(Nc2ccccc2)[nH]c1=O
 : 2.1 | -0.55
COc1ccc(CCNC(=O)C(C#N)c2nc3ccccc3nc2N2CC(C)OC(C)C2)cc1OC (stereo not given)
 : -14 | x
CCCOc1ccc(Oc2nc(N(C)C)nc(N3CCCC3)n2)nn1
 : -1.9 | 0.49
Cc1c(Cl)sn(-c2ccc(Cl)cc2)c1=O
 : 0.6 | -0.69
Cc1cccc(-n2ncc(C(=O)NC3CC3)c2-n2cccc2)c1
 : -0.7 | x
O=C1C(c2ccccc2)=C(c2ccccc2)C(=O)N1O
 : -2.9 | 0.99
Cc1ccc(OCC(O)CNCc2ccc(F)cc2)cc1 (stereo not given)
 : 1.1 | x
Cc1ccc2ccccc2n1
 : 0.4 | x
Cc1ccc(S(=O)(=O)Nc2nc(O)c(C3=c4ccccc4=NC3=O)s2)cc1
 : 2.2 | -0.11
O=C(C1CCCCC1)N(c1ccc2oc3c(c2c1)CCCC3)S(=O)(=O)c1cccs1
 : 1.5 | x
O=C(Cc1c[nH]c2ccccc12)OCC(=O)N1CCCCC1
 : -0.9 | x
O=S(=O)(c1ccc(Cl)cc1)N(Cc1ccccc1)Cc1ccco1
 : 4.2 | x
COC(=O)C1CCN(C(=O)/C=C/c2ccccc2)CC1
 : 2.3 | x
FC(F)(F)c1ccc(N2CCCN(C(=S)Nc3cccnc3)CC2)nc1
 : 0.7 | 0.25
Cc1ccc(-c2nnc(N3CCN(S(C)(=O)=O)CC3)c3ccccc23)cc1
 : -1.3 | 1.4
C=CCn1c(N)cc(=O)nc1SC(C)C(=O)Nc1ccccc1 (stereo not given)
 : -0.3 | x
Cc1oc2ccc(O)c(CN3CCCC3)c2c1C(=O)NC1CCCCC1
 : 0.2 | -0.51
Cc1cc(C(=O)NN2CCN(C)CC2)cs1
 : -0.6 | 0.69
CCCCc1ccc(N2C(=NC(=O)CC)SC3CS(=O)(=O)CC32)cc1 (stereo not given)
 : -1.1 | 1.1
CNC(=O)c1cccc2c1-c1ccccc1C2=O
 : 2.0 | x
O=C(COC(=O)/C=C/c1ccccc1)NC1CCS(=O)(=O)C1 (stereo not given)
 : -1.1 | x
CCCCNC(=O)Cc1csc(-c2ccccc2)n1
 : -1.3 | -0.4
COc1ccc(N2CCN(S(=O)(=O)/C=C/c3ccccc3)CC2)cc1
 : -1.2 | 0.42
COc1ccc(NC(=O)C2CCN(C(=O)c3cccc(OC)c3)CC2)cc1
 : 2.3 | -0.35
COc1ccc(CN(C)c2nn(C)c(=O)n(C)c2=O)cc1OC
 : 1.1 | x

The final three compounds of the part above are carried over, then new ones follow:
Values run as follows: BasE inh | KSHV LANA nucl
COc1ccc(N2CCN(S(=O)(=O)/C=C/c3ccccc3)CC2)cc1
 : -1.2 | 0.42
COc1ccc(NC(=O)C2CCN(C(=O)c3cccc(OC)c3)CC2)cc1
 : 2.3 | -0.35
COc1ccc(CN(C)c2nn(C)c(=O)n(C)c2=O)cc1OC
 : 1.1 | x
CCNC(=S)NCCc1ccc(Cl)cc1
 : 1.4 | x
CC(=O)Nc1ccc2c(c1)ncn2C1CCCCC1
 : 4.0 | 0.67
CC(=C\c1ccccc1)/C=C1/SC(=O)N(C(C)C)C1=O
 : 3.4 | 0.56
COC(=O)c1c(C)[nH]c(C)c1/C=N/OC(=O)c1cccs1
 : -2.4 | 0.13
S=c1[nH]nc(Cc2ccccc2)n1C1CCCCC1
 : -0.7 | 0.099
O=C(CSc1ccccc1)Nc1ccc2c(c1)OCO2
 : 5.1 | 0.17
O=C(CSc1nnc2sc3ccccc3n12)N1CCCC1c1ccc2c(c1)OCCO2 (stereo not given)
 : 1.3 | x
O=S(=O)(Cc1nc(COc2c(Cl)cccc2Cl)no1)c1ccc(Cl)cc1
 : 2.8 | 0.067
CN(C)c1ccc(NC(=O)c2cc(C(F)(F)F)cc(C(F)(F)F)c2)cc1
 : x | 0.97
CC(C)CCn1nnnc1CN1CCN(C(=O)c2ccco2)CC1
 : 0.4 | -0.14
N#CC1=C(SCC(=O)Nc2ccc(F)cc2)NC(=O)C(C#N)C12CCCCC2 (stereo not given)
 : 2.0 | x
CNC(=O)COC(=O)CN1C(=O)c2ccccc2C1=O
 : 0.1 | x
Cc1cccc(C(CC(=O)NCc2cccs2)n2cccc2)c1 (stereo not given)
 : 1.3 | -0.6
COC(=O)c1ccc(COC(=O)c2cc3c(s2)CCC(C)C3)o1 (stereo not given)
 : -2.2 | x
CC1(NC(=O)Cc2n[nH]c(=O)c3ccccc23)CCS(=O)(=O)C1 (stereo not given)
 : 3.7 | x
Cc1ccccc1-n1c(O)c(C=NCC2CCCO2)c(=O)[nH]c1=S (stereo not given)
 : 0.8 | 0.45
CCC1CCCCN1C(=O)COC(=O)c1cccs1 (stereo not given)
 : 1.6 | x
CSc1n[nH]c(-c2cccc(Cl)c2)c1C#N
 : -1.7 | x
Cc1cc(=O)c2nncn2[nH]1
 : 4.0 | x
COc1cccc(NC(=O)Cn2c(=O)n(C(C)C)c(=O)c3oc4ccccc4c32)c1
 : 0.4 | 0.92
CCOC(=O)c1cc2sccc2n1CC(=O)NC1CCC(C)CC1 (stereo not given)
 : -3.2 | 2.8
O=C(CCCCn1c(=O)[nH]c2ccsc2c1=O)NCc1cccnc1
 : 0.7 | -0.15
O=C(c1ccc(COc2c(F)c(F)cc(F)c2F)o1)N1CCN(c2ccc(Cl)cc2)CC1
 : -1.1 | 2.5
COC(=O)N/N=C/c1ccc(C(C)C)cc1
 : -1.4 | x
NN1CC(=O)N(c2ccc(Cl)cc2)CC1=O
 : 3.8 | 0.14
COc1ccc(C(=O)NC(=S)Nc2ccc(NC(=O)c3ccco3)cc2)cc1Cl
 : -1.1 | -0.55
O=C(CN1CCCc2ccccc21)NC(=O)NC1CCCCC1
 : 3.0 | x
O=C(C1CC1)N1CCN(CN2C(=O)NC(Cc3ccccc3)(Cc3ccccc3)C2=O)CC1
 : 1.9 | x
CC(C)NC(=O)CCc1nnc2ccc(N3CCCC3)nn12
 : -0.4 | 1.6
c1csc(-c2ccn3cnnc3n2)c1
 : 3.5 | 0.19
O=C(CCN1C(=O)C2C3C=CC(C3)C2C1=O)NC1CCCc2ccccc21 (stereo not given)
 : -1.6 | 0.81
Oc1ccccc1-c1nnc(SCc2ccccc2)n1-c1ccccc1
 : 2.9 | x
COc1ccc(CN2CCCC(C(N)=O)C2)cc1 (stereo not given)
 : -0.7 | -0.62
Cc1ccc2[nH]c3nc(NN)nnc3c2c1
 : 1.5 | -0.8
SCCNc1n[nH]c(Nc2ccccc2)n1
 : 0.5 | x
COCc1[nH]c(=S)[nH]c(=O)c1Cc1c(F)cccc1Cl
 : 1.6 | x
O=C(CC1SC(=NCc2ccccc2)NC1=O)NC1CC1 (stereo not given)
 : 2.2 | x
CSCC(CSC)OC(=O)Nc1ccc(Cl)cc1
 : 0.2 | -0.21
O=C(/C=C/c1cccs1)N(CC1CCCO1)C1CCS(=O)(=O)C1 (stereo not given)
 : 1.8 | x
Cc1cc(NCC(=O)Nc2ccc(N3CCOCC3)cc2)ccc1Br
 : -1.4 | x
COc1ccc(-n2c(SC3CCOC3=O)nc3ccccc32)cc1 (stereo not given)
 : 2.6 | x
c1ccc(CCCn2cnc3ccccc32)cc1
 : 4.0 | 0.12
COC(=O)C(C)N1C(=O)S/C(=C/c2cccn2C)C1=O (stereo not given)
 : -1.0 | 1
N#Cc1c(N2CCCC2)nc(-c2ccccc2)c2c1CCCC2
 : 1.4 | -0.63
Cc1nccn1CC(=O)N/N=C/c1ccc(O)c(O)c1
 : 0.5 | 0.072
OCc1cc(C(O)CNCCCCCCOCCCCc2ccccc2)ccc1O (stereo not given)
 : x | 0.26&-0.94
Cn1c([N+](=O)[O-])cnc1COC(N)=O
 : -2.0&-1.3 | -0.59&-1.5&0.42
Cc1ccc(CSC2NCC(C)N2)cc1C (stereo not given)
 : x | -0.2
C=CCn1c(C#N)c(N)sc1=N
 : -11 | 1.9
CCCCc1cc(=O)oc2cc(OC(C)=O)cc(OC(C)=O)c12
 : 1.5 | 0.43
CCC(=O)Nc1sc2c(c1C#N)CC(C)(C)NC2(C)C
 : -0.3 | -0.5
CCOC(=O)C1CCCN(C(=O)CCc2nc3ccccc3s2)C1 (stereo not given)
 : 0.9 | x
c1csc(N2CCCC2)n1
 : 2.8 | x
FC(F)(F)c1cccc(-n2nnnc2-c2ccccc2)c1
 : -0.3 | -0.46
O=C(NCc1ccco1)c1ccccc1OC(F)F
 : 1.0 | x
C/C=C/C(=O)Nc1nc2ccc(OC)cc2s1
 : 0.7 | -1.1
COc1ccc(C2=NN(CCC(=O)NCCCN3CCN(c4ccccc4F)CC3)C(=O)CC2)cc1
 : -1.6 | 0.23
Cn1c(CO)cnc1S(=O)(=O)Cc1c(Cl)cccc1Cl
 : x | -0.079
O=C(OCC(=O)N(Cc1ccccc1)C1CCS(=O)(=O)C1)c1cc2c(s1)CCC2 (stereo not given)
 : 1.8 | x
O=C(C1COc2cc(S(=O)(=O)NCCc3ccccc3)ccc2O1)N1CCCCC1 (stereo not given)
 : 2.3 | -0.64

Profiles as entered above. Order of values: BasE inh | KSHV LANA nucl
`Cc1ccc2[nH]c3nc(NN)nnc3c2c1` is listed with 1.5 | -0.8
`Cn1c([N+](=O)[O-])cnc1COC(N)=O` is listed with -2.0&-1.3 | -0.59&-1.5&0.42
`Cc1nccn1CC(=O)N/N=C/c1ccc(O)c(O)c1` is listed with 0.5 | 0.072
`O=C(OCC(=O)N(Cc1ccccc1)C1CCS(=O)(=O)C1)c1cc2c(s1)CCC2` (stereo not given) is listed with 1.8 | x
`O=C(NCc1ccco1)c1ccccc1OC(F)F` is listed with 1.0 | x

Quoted from the listing:
Value of O=C(Cc1c[nH]c2ccccc12)OCC(=O)N1CCCCC1 under BasE inh: -0.9
Value of Cc1cc(=O)c2nncn2[nH]1 under BasE inh: 4.0

(next part)
Values run as follows: BasE inh | KSHV LANA nucl
NC(=O)c1c(NC(=O)/C=C/c2cccs2)sc2c1CCCC2
 : 3.5 | -0.7
CCn1cc(C(=O)Nc2ccc(C(F)(F)F)cc2)c(=O)c2cc(Cl)ccc21
 : x | 0.21
Clc1ccsc1-c1ccn[nH]1
 : x | -1.4
COC(=O)N/N=C/C1CCCCC1
 : 1.3 | x
O=C(O)C1Nc2c(I)cccc2C2C=CCC12 (stereo not given)
 : 47* | 1.3
Cc1occc1C(=O)NC1CCN(C)CC1
 : 0.8 | 2.4
O=C(Nc1cccc(Cn2cccn2)c1)c1csc2ccccc12
 : 0.3 | 0.56
NC(=O)Cn1cnc2c(nnn2-c2ccc(OC(F)(F)F)cc2)c1=O
 : 0.0 | -0.63
CCCc1nc2ccccc2c(N)c1CC
 : -1.2 | 0.0085
CC1=NN(C(=O)c2cccnc2)C(C)(O)C1 (stereo not given)
 : 1.4 | -1.1
CCCCN1C(=O)SC(Nc2ccc(F)cc2)C1=O (stereo not given)
 : 0.3 | 0.91
CC(C)CC(NC(=O)c1ccc(C#CC(C)(C)O)s1)C(=O)O (stereo not given)
 : -1.9 | -1.6
COC(=O)c1ccc(CSc2nnc(-c3ccccc3)n2-c2ccccc2)o1
 : 0.4 | x
O=C(CN1C(=O)c2ccccc2C1=O)OC(C(=O)NC1CCCC1)c1ccncc1 (stereo not given)
 : -0.7 | -0.9
O=C(O)c1oc2ccccc2c1CSC1=NCCS1
 : 1.0 | x
CSc1nc(-c2ccccc2)ccc1C#N
 : 4.0 | -0.24
O=C(NC1CC2CCCC(C1)N2C(=O)NCc1ccccc1)C1CC1 (stereo not given)
 : -1.9 | 0.52
Cc1ccc(NC(=O)Cn2ccccc2=O)cc1
 : -1.2 | x
CS(=O)(=O)c1nc2ccccc2n1CC(=O)N1CCCC1
 : 2.8 | -0.4
COCCn1c(C)cc(C2=NNC(=NCc3ccc(OC)cc3)SC2)c1C
 : 2.4 | x
Cc1cccc(NC2=C(n3nnc4ccccc43)C(=O)c3ccccc3C2=O)c1
 : -0.5 | x
CC(C)(C)C(=O)C(Cc1c(F)cccc1Cl)C(=O)C(C)(C)C
 : -0.3 | x
CCOC(=O)C1CCN(S(=O)(=O)c2ccc(N3C(=O)CC4(CCCC4)C3=O)c(Cl)c2)CC1
 : 0.9 | x
FC(F)(F)c1cnc(-c2cnc(-c3cccnc3)nc2)c(Cl)c1
 : x | -1.3
Cc1ccccc1COC(=O)CCC1=NS(=O)(=O)c2ccccc2N1
 : 0.8 | 1.2
O=C1CCN(Cc2ccccc2)C(=O)N1
 : 2.0 | x
CCOC(=O)Cc1c(-c2ccccc2)c2cc(Cl)ccc2[nH]c1=O
 : 0.1 | x
CC1CCN(C(=O)NC(C(F)(F)F)C(F)(F)F)CC1
 : -0.4 | 0.51
Cc1cc(-c2ccccc2)nc2cc(C(N)=O)nn12
 : -3.1 | 0.25
CN(C)c1cc(C(F)(F)F)nc2cc(C(C)(C)C)nn12
 : -1.6 | x
O=C(NCc1ccco1)c1ccc(COCC(F)(F)C(F)F)cc1
 : 1.5 | 0.25
COc1cccc(OC)c1OCCOc1ccccc1C
 : 2.9 | 0.13
c1ccc(-c2nnc(SCCC3OCCCO3)o2)cc1
 : 1.1 | x
CCCNC(=O)Nc1cc(C)on1
 : 0.3 | x

Not all compounds are listed; the hit share may differ from the screen's.
